ugtP null kill = growth inhibition of ugtP-null S. aureus, primary screen, RN4220 ugtP deletion, OD600. 16 h; some inactives read as strong as hits. 0.54% of 330,000 active. AID 1259309, 2017. growth inhibition, % (no concentration beside the values);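 active = z-score under -3 and OD600 up to 0.15 on both plates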;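 note: plate controls were untreated wells for no effect and antibiotic for full effect; wells of about 80 µL received 100 nL stock; the first replicate is given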
Bead autofluor = compound fluorescence in toxin protease inhibitor counterscreen | compound autofluorescence counterscreen, microsphere flow cytometry; active compounds read high | fluorescence intensity (concentration not given with the values) | 3.1% of 360,000 active;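 active = at least 3 SD above the mean of all compounds, about 16000 in these data; inconclusive = too few beads counted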;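 note: 100 nL of 1 mM stock went into each well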
PrP 5UTR inh = inhibition of PrP 5' UTR reporter expression. 0.35% of 340,000 active. cell-based PrP 5' UTR mRNA reporter, plate reader. inhibition, % (test concentration not listed). AID 488862, 2010;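 active = every replicate at 50% or more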;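 note: 0 = median of the neutral control wells; tested in H4 reporter cells; numbers are from one replicate; inactives centre near -14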
Sa RN4220 lethal = growth inhibition of S. aureus RN4220, primary screen, OD600; 16 h; inhibition, % (test concentration not listed); 0.33% of 330,000 active;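 active = z-score of -3 or lower and OD600 up to 0.18 on both plates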;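 note: plate controls were untreated cells for no effect and reference antibiotic for full effect; stock transfer was 100 nL into about 80 µL; one replicate is shown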
Mtb hypoxia rep = PubChem AID 1159583 | M. tuberculosis hypoxia-regulated fluorescent reporter, fluorescence | fluorescence inhibition, % (test concentration not listed) | 0.1% of 300,000 active;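 active = 35 to 45% if threefold the growth effect, above 45% if 1.5-fold the growth effect; inactive = the rest, general growth blockers included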;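 note: wells of about 50 µL received 100 nL stock; 0% = vehicle wells and 100% = reference inhibitor wells; whole bacteria with a GFP reporter of the hypoxia response; strong numbers were not always called active; many hits fall short of the cut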
BJeLR viability = MLPCN primary cell-based screen for lethality selective to Ras in HRASV12 cells | inhibition, % (test concentration not listed) | BJeLR (HRASV12) viability, CellTiter-Glo ATP luminescence, 48 h; reference of the scale not given here | AID 1554, 2009 | 0.17% of 300,000 active;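 active = replicate mean above 50%; inconclusive = above 50% but judged a plate artefact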;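 note: 50 nL library stock added to about 25 µL; numbers are from one replicate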
Mtb hypoxia rep growth = also measured in Mtb hypoxia rep; calls as there; growth inhibition, %; measured here: M. tuberculosis growth (absorbance);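 0% = vehicle and 100% = reference antibiotic; read after six days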
Numbers without * were called inactive; ? = inconclusive; · = not tested or not shown.

SMILES	ugtP null kill	Bead autofluor	PrP 5UTR inh	Sa RN4220 lethal	Mtb hypoxia rep	Mtb hypoxia rep growth	BJeLR viability
Cc1ccc(-n2c(CSc3nc(C)cc(C)n3)nnc2SCC(=O)NCc2ccco2)cc1	-3.1	22159*	-14.0	4.8	6.7	4.6	-0.9
CC1CN(C(C)CO)C(=O)c2cc(NS(=O)(=O)c3cn(C)cn3)ccc2OC1CN(C)C(=O)Nc1ccc(C(F)(F)F)cc1 (stereo not drawn)	-1.2	·	·	2.5	1.9	6.3	·
Cc1c(CCC(=O)N[C@@H](CC(C)C)C(=O)O)c(=O)oc2c(C)c3oc4c(c3cc12)CCCC4	18.1	3620	-5.4	9.2	-2.8	3.7	-2.6
COc1ccc(CNC(=O)CN2C(=O)CSc3ccc(S(=O)(=O)N4CCOCC4)cc32)cc1	2.5	5696	-15.5	3.5	5.2	2.4	-7.0
CC(C)CNS(=O)(=O)c1ccc(CCC(=O)O)cc1	0.5	2601	-12.5	-6.9	4.8	1.4	6.0
O=S(=O)(c1cccc2cccnc12)N1CCN(Cc2ccccc2)CC1	20.0	3198	-2.4	3.6	7.5	4.6	-5.1
O=C(c1ncc[nH]1)c1ccco1	4.4	4035	-27.0	-1.9	-1.6	-3.8	-7.0
O=C(Cc1ccc(Cl)cc1)N/N=C/c1c(Cl)cccc1Cl	·	2395	-13.0	·	·	·	4.4
Cc1nn(C)cc1CN(C)S(=O)(=O)c1cccc([N+](=O)[O-])c1	6.0	4463	-3.8	1.9	-0.8	12.9	-0.4
O=C(c1cccc(C(F)(F)F)c1)C1CCCN(C(=O)c2cc(C3CC3)[nH]n2)C1 (stereo not drawn)	-1.0	5053	-30.0	4.2	15.4	0.6	1.2
Cc1ccc(CC(=O)N/N=C/c2ccc3c(c2)OCO3)cc1	·	3304	-32.1	·	·	·	-18.2
S=c1nc(-c2ccccc2)n(CCN2CCOCC2)c2c1CCCC2	-3.0	11052	-13.9	0.8	6.2	9.5	-1.3
COc1ccc(NC(=O)COc2ccc3c(c2)OCO3)cc1	-5.3	3157	-12.9	4.1	-11.3	7.1	-4.2
CC1CCOC2(O1)C(=O)N(CN1CCN(c3cccc(Cl)c3)CC1)c1ccccc12 (stereo not drawn)	1.8	2857	-24.0	5.3	13.9	7.0	-7.0
Cc1cccc(NC(=O)C2CCN(S(=O)(=O)c3ccc4c(c3)OCCO4)CC2)n1	7.5	?	-6.9	2.6	13.2	-6.9	4.9
CN(C)C(=O)CCC(=O)N1CCCC(N2CCN(c3cccc(C(F)(F)F)c3)CC2)C1 (stereo not drawn)	6.2	3940	-25.5	1.6	-0.5	-6.4	6.5
CN1CCN(C(=O)c2ccccc2NC(=O)c2cccs2)CC1	0.3	2634	-0.5	-8.4	·	·	13.9
CCn1nc(NS(=O)(=O)c2cccc3nonc23)c2cc3ccc(C)cc3nc21	-10.5	4105	-9.7	27.3	4.9	-15.8	2.2
CSC(=NC#N)N1CCN(c2c(C)cccc2C)CC1	-1.4	3638	-8.4	6.3	4.9	-3.9	8.5
COc1cc(C(=O)Nc2ccc(C)cn2)ccc1OCC(=O)N1CCOCC1	5.2	8577	-16.5	3.9	4.2	-0.8	·
CCOC(=O)NN=Cc1cn(Cc2ccccc2Cl)c2ccccc12	-12.4	·	·	-1.7	6.6	5.6	·
COC(=O)[C@]1(C)N[C@H](CN(C)C(=O)Nc2ccc(C(F)(F)F)cc2)[C@@H]2C(=O)N(C)C(=O)[C@@H]21	1.1	3846	-16.1	2.7	7.7	8.0	·
Cc1cc(-c2ccccc2)nc(N2CCC(C(=O)NC(C)C)CC2)n1	-0.3	16521*	-34.8	1.5	12.9	5.8	-1.0
CCOc1ccc(NC(C)C(=O)NN=Cc2cccs2)cc1 (stereo not drawn)	-3.7	·	·	9.5	6.3	-3.1	·
CCS(=O)(=O)c1ccc(O)c(NC(=O)Nc2ccccc2OC)c1	6.9	·	-20.5	4.9	0.1	-0.3	-9.6
CCCOc1ccc(C(=O)NC(C)C(=O)O)cc1 (stereo not drawn)	12.5	21313*	-8.3	1.7	3.5	7.3	-0.8
CCS(=O)(=O)Nc1cccc(C(=O)O)c1	3.5	·	·	10.1	-1.6	-10.9	-0.6
Cc1ccc(NC(=O)c2cc(-c3ccccc3)n(CCCN3CCOCC3)c2C)cc1	1.9	·	·	6.3	-8.5	3.1	-0.5
CC(=NN=Cc1ccccc1)c1nnn(-c2nonc2N)c1C	3.3	·	·	2.6	22.7	3.6	·
CCNC(=O)c1c(NC(C)=O)sc2c1CCCC2	-4.3	3011	4.0	1.8	11.9	9.7	-0.1
OC(CNCc1ccc(Cl)cc1)C(F)(F)F (stereo not drawn)	-14.9	4615	-28.1	-1.5	-6.6	6.3	-11.0
c1ccc(CC2CNCCN2CC2CCCCC2)cc1 (stereo not drawn)	4.3	·	·	1.8	15.1	12.3	·
O=C(Nc1ccc2c(c1)OCO2)c1cnccn1	8.7	5094	-53.4	4.9	4.6	9.8	3.7
COc1ccc(O)c(C(=O)c2cc(C#N)c(=O)n(-c3ccc(Cl)cc3)c2)c1	6.3	4253	-14.6	-0.2	4.7	8.8	14.7
COCCN1C(=O)NC(=O)/C(=C\c2ccc(F)cc2)C1=O	7.8	4794	-13.2	7.0	7.6	12.9	6.5
Cc1ccc(S(=O)(=O)N(CC(O)CN2C(=O)NC(C)(C)C2=O)c2cccc(C)c2)cc1 (stereo not drawn)	7.4	3970	-34.6	3.9	13.2	4.5	-8.7

Some of the entries above, set out differently:
> COCCN1C(=O)NC(=O)/C(=C\c2ccc(F)cc2)C1=O
- ugtP null kill: 7.8
- Bead autofluor: 4794
- PrP 5UTR inh: -13.2
- Sa RN4220 lethal: 7.0
- Mtb hypoxia rep: 7.6
- Mtb hypoxia rep growth: 12.9
- BJeLR viability: 6.5

> Cc1ccc(S(=O)(=O)N(CC(O)CN2C(=O)NC(C)(C)C2=O)c2cccc(C)c2)cc1 (stereo not drawn)
- ugtP null kill: 7.4
- Bead autofluor: 3970
- PrP 5UTR inh: -34.6
- Sa RN4220 lethal: 3.9
- Mtb hypoxia rep: 13.2
- Mtb hypoxia rep growth: 4.5
- BJeLR viability: -8.7

Some of the entries so far, as comma-separated lines.
SMILES,ugtP null kill,Bead autofluor,PrP 5UTR inh,Sa RN4220 lethal,Mtb hypoxia rep,Mtb hypoxia rep growth,BJeLR viability
Cc1ccc(-n2c(CSc3nc(C)cc(C)n3)nnc2SCC(=O)NCc2ccco2)cc1,-3.1,22159*,-14.0,4.8,6.7,4.6,-0.9
CC1CN(C(C)CO)C(=O)c2cc(NS(=O)(=O)c3cn(C)cn3)ccc2OC1CN(C)C(=O)Nc1ccc(C(F)(F)F)cc1 (stereo not drawn),-1.2,·,·,2.5,1.9,6.3,·
Cc1c(CCC(=O)N[C@@H](CC(C)C)C(=O)O)c(=O)oc2c(C)c3oc4c(c3cc12)CCCC4,18.1,3620,-5.4,9.2,-2.8,3.7,-2.6
COc1ccc(CNC(=O)CN2C(=O)CSc3ccc(S(=O)(=O)N4CCOCC4)cc32)cc1,2.5,5696,-15.5,3.5,5.2,2.4,-7.0
CC(C)CNS(=O)(=O)c1ccc(CCC(=O)O)cc1,0.5,2601,-12.5,-6.9,4.8,1.4,6.0
O=S(=O)(c1cccc2cccnc12)N1CCN(Cc2ccccc2)CC1,20.0,3198,-2.4,3.6,7.5,4.6,-5.1
O=C(c1ncc[nH]1)c1ccco1,4.4,4035,-27.0,-1.9,-1.6,-3.8,-7.0

Next part.
SMILES	ugtP null kill	Bead autofluor	PrP 5UTR inh	Sa RN4220 lethal	Mtb hypoxia rep	Mtb hypoxia rep growth	BJeLR viability
COC(=O)C/C(C)=N/Nc1ccc(S(=O)(=O)N2CCCC2)cc1[N+](=O)[O-]	·	2026	-28.0	·	·	·	-1.7
O=C(Cn1c(=O)n(-c2cccc(Cl)c2)c(=O)n1CC(=O)N1CCCCC1)N1CCCCC1	-3.0	4634	-16.6	-3.0	·	·	-0.1
CC(C)(C)c1ccc(-n2ncc3c2CCCC3NC(=O)C2=NNC(=O)CC2)cc1 (stereo not drawn)	3.7	4648	-15.3	2.0	7.8	1.0	-2.6
CCOC(=O)C1C2COc3ccc(C)cc3C2N2C(=O)c3cc(Br)ccc3NC(=O)[C@@]12C (stereo partly drawn)	-13.7	·	·	-1.5	-3.4	5.8	·
CC1CCN(C(=O)C2CCC(CNc3c(N4CCCCC4)c(=O)c3=O)CC2)CC1 (stereo not drawn)	4.6	4504	-21.9	1.1	·	·	-1.5
COc1ccc(NC(=O)COC(=O)/C=C/c2cnc3ccccc3n2)cc1	-2.4	2031	-11.5	3.0	1.5	3.6	-10.3
NC(Cc1cccc2ccccc12)=NO	9.0	·	·	4.5	2.7	8.3	·
CC1CCC/C(=N\NC(=S)NCc2ccccc2)C1 (stereo not drawn)	·	3101	-16.2	·	·	·	5.5
N/C(CC(=O)Nc1ccc(F)c(Cl)c1)=N\OC(=O)c1cccs1	-0.5	5624	-29.8	2.4	18.1	-3.5	-5.1
CCOC(=O)c1c(C)nc2c(C)cccn12	-7.1	2810	-5.7	-8.9	6.1	20.2	-16.1
S=C(NCCC(c1ccccc1)c1ccccc1)Nc1cccc(Cl)c1	71.6	3705	-18.2	26.2	11.0	19.7	3.9
C(=N\N1CCN(Cc2cccc3ccccc23)CC1)/c1cccnc1	·	20176*	-1.5	·	·	·	1.6
CCOC(=O)C1CCN(C(=O)C(C)Oc2ccc(C(=O)c3ccccc3)cc2)CC1 (stereo not drawn)	-2.4	8287	-5.9	2.9	-7.2	1.1	·
CC1(/[N+]([O-])=C/c2ccccc2F)CCCCC1=O (stereo not drawn)	0.8	2277	-14.8	7.2	-2.2	7.8	-0.4
CC(CC(=O)Nc1ccc(Cl)c(C(F)(F)F)c1)=NNC(N)=S	-6.8	·	·	4.1	-9.8	3.0	·
COc1ccc(C(=O)NCCS(=O)(=O)NCc2cccnc2)cc1	-0.3	?	-14.0	0.1	2.0	6.9	-8.6
CCC1C(=O)CC(c2ccccc2)NC1c1ccccc1 (stereo not drawn)	-4.0	4252	-10.7	2.8	5.1	-7.4	-2.4
CCOC(=O)C1(CCOc2ccccc2)CCN(Cc2ccc(O)c(OC)c2)CC1	7.9	4934	-23.1	6.1	16.7	3.7	5.0
CCOC(=O)N1CCN(C(=O)CSc2nnc(-c3cccs3)o2)CC1	11.0	4659	-7.4	2.0	·	·	-3.5
CCOc1ccc(C(=O)Nc2cc(-c3nc4ccccc4[nH]3)ccc2Cl)cc1[N+](=O)[O-]	38.7	2189	-13.2	1.3	2.8	12.2	-0.8
Cc1c(/C=C/C(=O)c2ccc(Cl)s2)cnn1C	4.5	8409	-103.1	9.7	12.0	11.5	9.9
O=C(O)c1ccc(Cl)cc1Nc1nc2cc(Cl)ccc2o1	60.8	4216	-30.1	62.0	2.9	1.6	-1.7
CCOC(=O)/C(C(=O)Nc1ccccc1Cl)=C1/NC(C)(C)Cc2ccccc21	31.9	7871	-27.0	-5.8	11.5	6.2	-2.6
Cc1ccc2nc3c(cc2c1)c(NC(=O)c1cccnc1)nn3C	-4.4	2829	-13.6	4.3	·	·	-1.0
COc1ccccc1CC(=O)Nc1ccc(S(=O)(=O)N2CCOCC2)cc1	-3.7	3391	-3.2	0.5	0.8	-0.8	-4.2
O=C1CCc2cc(S(=O)(=O)Nc3ccccc3)ccc2N1	4.2	5855	-24.5	9.3	10.3	7.2	·
O=C(CSc1nccn(-c2ccc(Br)cc2)c1=O)Nc1ccccc1F	8.7	5459	-9.2	2.4	-3.7	0.5	2.6
O=C(Nc1ccc(C(=O)O)cc1)/C(=C\c1ccc2c(c1)OCO2)NC(=O)c1ccccc1	0.9	3550	-20.9	1.4	3.1	1.1	-5.2
COc1ccc(S(=O)(=O)NC(CC(C)C)C(=O)NC(C)c2cccs2)cc1 (stereo not drawn)	2.6	6776	·	10.1	-2.9	-10.7	·
O=C(Nc1cccc2ccccc12)/C(=C\c1cccc([N+](=O)[O-])c1)NC(=O)c1cccs1	-7.3	8384	-11.6	4.5	2.1	2.0	2.9
O=C(COC(=O)c1ncc(Cl)c(Cl)c1Cl)NC1CCS(=O)(=O)C1 (stereo not drawn)	9.4	5147	-24.4	3.7	9.3	0.5	-17.7
O=C(Nc1ccccc1C(=O)NCc1ccco1)c1ccco1	0.4	17328*	-6.2	4.2	1.4	0.8	-7.7
O=C(OCc1c(F)cccc1Cl)c1cnc2ccccc2n1	-2.5	4273	-24.6	4.1	-3.0	-5.3	3.4

From PubChem BioAssay
